High-throughput results (PubChem)
FEN1 inhibitor = blocks human flap endonuclease 1; Recombinant FEN1 flap cleavage, fluorescence, 15 min; Potency, µM (top dose mostly 114 µM), without a hit: at the highest dose activity change, negative = inhibition, usual class: inhibitors; AID 588795; actives 0.35% (n = 390,000); also: nearly all actives have a fitted effect of over 65% in size
Target sequence (P39748 whole entry, looked up): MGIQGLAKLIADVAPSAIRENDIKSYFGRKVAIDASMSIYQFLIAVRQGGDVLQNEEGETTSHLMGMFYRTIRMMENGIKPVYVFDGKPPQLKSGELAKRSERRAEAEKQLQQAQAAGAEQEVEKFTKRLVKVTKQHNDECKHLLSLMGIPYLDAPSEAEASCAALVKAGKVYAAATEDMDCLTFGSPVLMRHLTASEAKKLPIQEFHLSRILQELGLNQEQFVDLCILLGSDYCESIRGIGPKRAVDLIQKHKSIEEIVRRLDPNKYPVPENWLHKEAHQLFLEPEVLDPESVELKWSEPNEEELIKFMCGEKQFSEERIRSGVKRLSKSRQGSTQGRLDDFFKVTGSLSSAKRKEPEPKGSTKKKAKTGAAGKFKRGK
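With each library titrated from low to high concentration, compounds met 10 nM FEN1 for 15 min at room temperature before 50 nM substrate was added; readings at 0 and 15 min fed four-parameter Hill curve fits.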
N370S GC mod = inhibits or activates N370S mutant glucocerebrosidase. N370S GC spleen homogenate, 4MU-glucoside fluorescence. Potency, µM (highest dose often 59.4 µM), for inactives: at the top dose activity change, negative = inhibition, actives largely listed as inhibitors. actives 0.092% (n = 330,000). AID 2101;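 also: 0% = full enzyme activity and -100% = no enzyme basal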
Active calls of the source: *; ? = inconclusive; . = no result given; & = joins results of further samples. Calls follow the shape of the dose curve; as a rule, active = well fitted curve in the direction sought with a large enough effect; inconclusive = small, poorly fitted or top-dose-only effect, or another doubt; inactive = no such curve, though single readings can be large; an effect the other way counts as inactive or inconclusive. Unless noted, % is scaled to controls: 0 for no effect and ±100 for the full control effect; potency is read from the fitted curve at half-maximal effect.

SMILES	FEN1 inhibitor	N370S GC mod
Cn1c(=O)n(C)c2cc(N3CCOCC3)c(NC(=O)c3ccc(Cl)cc3)cc21	-15%	.
CS(=O)(=O)N(CC(=O)NCCSCc1ccccc1)c1ccccc1F	-4%	-8%
Cc1ccc(OCCOCCN2CCN(C)CC2)c(C(C)(C)C)c1	-11%	-6%
O=C(Nc1ccc(Cl)cc1)Nc1ccc(Cl)c(Cl)c1	-7%&-4%	.
CCOC(=O)C1CCN(C(=O)CC(NS(=O)(=O)c2ccc(OC)cc2)C(C)C)CC1 (configuration not stated)	-2%	3%
CCCn1nc(C(=O)NCCN2CCOCC2)c2ccccc2c1=O	5%	4%
CC1(CC(=O)N/N=C/c2ccc(OCc3ccc(Cl)cc3Cl)cc2)OCCCO1	-14%	?
Fc1ccccc1-n1cc(-c2ccccc2)[nH]c1=S	1%	9%
CCOC(=O)C1=C(COC(=O)C2CC(=O)N(c3ccc(C)cc3)C2)NC(=O)NC1C (configuration not stated)	0%	-19%
Cc1cc(C)c2nc(SCCC#N)nc(C)c2c1	-10%	16%
CCc1c(C)nc(SC/C=C/c2ccccc2)[nH]c1=O	-3%	19%
O=C1CC[C@@H](C(=O)N2CSC[C@H]2C(=O)O)N1	7%	0%
CCOc1ccccc1NC(=O)Cn1c(=O)n(-c2cccc(C)c2)c(=O)c2c1c1cc(OC)ccc1n2C	-3%	.
CCN(CC(=O)Nc1c(F)cccc1F)C(=O)/C=C/c1ccc(S(=O)(=O)N2CCCCCC2)cc1	-2%	3%
Cc1ccc(-n2nc3cc(C)c(NC(=O)c4cccnc4)cc3n2)cc1	4%	4%
O=C(COc1ccc(/C=N/NC(=O)c2ccccc2O)cc1)Nc1ccc([N+](=O)[O-])cc1	3%	1%
Cc1cc(NC(=O)CSc2nnnn2-c2ccc(C)c(C)c2)no1	16%	8%
CC(C)(C)OC(=O)COc1cc(F)ccc1[N+](=O)[O-]	13%	-1%
COc1ccc(OCC(=O)c2c[nH]c3ccccc23)cc1	-1%	3%
CO[C@@H]1[C@@H](OC(N)=O)[C@@H](O)C(Oc2ccc3c(O)c(NC(=O)c4ccc(O)c(CC=C(C)C)c4)c(=O)oc3c2C)OC1(C)C (some centres not stated)	-6%	0%

Single records (already shown). Order of values: FEN1 inhibitor | N370S GC mod
Profile of CCN(CC(=O)Nc1c(F)cccc1F)C(=O)/C=C/c1ccc(S(=O)(=O)N2CCCCCC2)cc1 : -2% | 3%
Profile of CCc1c(C)nc(SC/C=C/c2ccccc2)[nH]c1=O : -3% | 19%
Profile of CS(=O)(=O)N(CC(=O)NCCSCc1ccccc1)c1ccccc1F : -4% | -8%
Profile of Fc1ccccc1-n1cc(-c2ccccc2)[nH]c1=S : 1% | 9%

The results go on.
SMILES	FEN1 inhibitor	N370S GC mod
c1ccc(CN2CCC(N3CCC(N4CCCCCC4)CC3)CC2)cc1	-7%	-7%
CCOc1ccc(N2CCc3c(C)nc(SC)nc32)cc1	8%	-3%
O=C(CCCN1C(=O)c2cccc3cccc(c23)C1=O)Nc1nccs1	0%	-7%
Cc1ccc(NC(=O)C2CC(=O)n3c(nc4ccccc43)N2)cc1Cl (configuration not stated)	7%	-2%
Cc1cc(C)cc(NC(=O)C2CCC(CNS(=O)(=O)c3ccc4c(c3)C(C)(C)C(=O)N4C)CC2)c1 (configuration not stated)	1%	.
CC1=CC(=O)N(c2cccc(C(F)(F)F)c2)C1c1ccc(Cl)cc1 (configuration not stated)	?	-20%
O=C(NC1CC1)C1=C[C@@H](c2csc3ccccc23)C[C@@H](OCc2ccc(CO)cc2)O1	0%	-1%
CCOc1ccc(NC(=O)CN2C(=O)NC(CCc3ccccc3)C2=O)cc1OCC (configuration not stated)	-5%	.
CCN1CCN(c2ccc(S(=O)(=O)N3CCCCC3)cc2NC(=O)Cc2c(F)cccc2Cl)CC1	-3%	-4%
Cc1cccc(NC(=O)Cn2c(=O)oc3cc(S(=O)(=O)N4CCCCCC4)ccc32)c1	8%	.

The closing 5 compounds of the section above come first, to join the parts.
SMILES	FEN1 inhibitor	N370S GC mod
CC1=CC(=O)N(c2cccc(C(F)(F)F)c2)C1c1ccc(Cl)cc1 (configuration not stated)	?	-20%
O=C(NC1CC1)C1=C[C@@H](c2csc3ccccc23)C[C@@H](OCc2ccc(CO)cc2)O1	0%	-1%
CCOc1ccc(NC(=O)CN2C(=O)NC(CCc3ccccc3)C2=O)cc1OCC (configuration not stated)	-5%	.
CCN1CCN(c2ccc(S(=O)(=O)N3CCCCC3)cc2NC(=O)Cc2c(F)cccc2Cl)CC1	-3%	-4%
Cc1cccc(NC(=O)Cn2c(=O)oc3cc(S(=O)(=O)N4CCCCCC4)ccc32)c1	8%	.
O=S(=O)(c1ccc(-c2cc(C(F)(F)F)on2)s1)N1CCN(c2ccccc2F)CC1	1%	.
CC(C)Cn1c(=O)c2ccccc2n2c(SCC(=O)N3c4ccccc4CC3C)nnc12 (configuration not stated)	-15%	6%
Cc1nc(NC(=S)NC(=O)c2ccco2)sc1C(=O)N(C)C	-3%	?
COc1ccccc1C(=O)N/C(=N/c1nc(C)cc(C)n1)Nc1ccccc1	-3%	6%
CCOC(=O)C(C)Sc1ncc(-c2ccccc2)cn1 (configuration not stated)	11%	20%
O=C(C[n+]1cn(C(F)F)c2ccccc21)c1ccc(OC(F)F)cc1	2%	10%
Cc1ccc(C2=N/C(=C\c3ccc(F)cc3)C(=O)N2)cc1	-3%	.
CC(=O)Nc1ccc(NS(=O)(=O)c2cn(C)c(=O)n(C)c2=O)cc1	12%	-22%
CC(=O)Oc1ccc(C(=O)NCc2ccc3c(c2)OCO3)cc1	3%	2%
O=C(/C=C/c1ccc(-c2ccccc2[N+](=O)[O-])o1)c1ccc(F)cc1	-4%	9%
COc1cc(-c2nc(CN(C)C(C)c3ccncn3)c(C)o2)ccc1F (configuration not stated)	-4%	-13%
O=C(COC(=O)Cc1ccccc1F)Nc1ccc2c(c1)OCO2	0%	1%
CC1CN(C(=O)N2CCC(C(=O)NCc3cccs3)CC2)c2cc(Cl)ccc2O1 (configuration not stated)	-1%	.
COc1cccc(/C=C2\SC(=S)N(CCCC(=O)Nc3ccc(C(=O)O)cc3)C2=O)c1	3%	8%
CSc1ncccc1C(=O)OCC(=O)N1CCN(C(=O)c2ccco2)CC1	-14%	.
CN1CCN(c2ccc(S(=O)(=O)N3CCCCC3)cc2NC(=O)CSCc2ccccc2)CC1	-4%	-17%
CCn1c(SCC(=O)Nc2ccc(C)cc2Br)nnc1-c1nonc1NC(C)=O	11%	.
CCOc1ccccc1NC(=O)Cn1c(=O)ccc2cc(S(=O)(=O)N3CCCC3)ccc21	12%	.
COc1ccc(/C=N/NC(=O)c2cccc(NC(C)=O)c2)c(C(=O)O)c1OC	13%	6%
COc1ccccc1CNC(=O)CNC(=O)c1sc2ccccc2c1Cl	13%	0%
C=CCn1nnc2sc3c(c2c1=O)CCC(C)C3 (configuration not stated)	-4%	7%
Cc1ccc(OCCNC(=O)C(=O)NCc2ccco2)cc1	4%	17%
COc1cc(-c2noc(CCCC(=O)Nc3ccc(C(N)=O)cc3)n2)cc(OC)c1OC	-7%	-8%
Cc1cc(C)c(Nc2cc(S(=O)(=O)O)c(N)c3c2C(=O)c2ccccc2C3=O)c(C)c1	56µM*	-1%
CC1CCc2c(sc(NC(=O)COc3ccccc3C(C)(C)C)c2C#N)C1 (configuration not stated)	11%	.
CC(Sc1nnc2c(n1)C1(C)CCC2C1(C)C)C(=O)Nc1ccccc1 (configuration not stated)	-10%	15%
Cn1c(C(=O)N2CCCC(C(=O)NCCN3CCOCC3)C2)cc2sccc21 (configuration not stated)	7%	-4%
O=C(COC(=O)c1ccc(S(=O)(=O)N2CCCCC2)cc1)NCc1ccco1	-2%	-1%
CCN1CCN(C(=O)Cn2ncc3c2-c2ccccc2OC3)CC1	0%	0%
Cc1ccc(C)c(NC(=S)NCc2ccc3c(c2)OCO3)c1	-11%	19%
C/C(CC(=O)Nc1cccc(Cl)c1Cl)=N\NC(=O)c1ccccc1N	-5%	2%
O=C(CCNS(=O)(=O)c1ccccc1)OCC(=O)c1ccc(Br)cc1	-5%	-2%
Cc1cc(NCCN2CCOCC2)n2nc(C)c(-c3ccc(Cl)cc3)c2n1	-15%	10%
CC[C@@H]1CN2CCc3cc(OC)c(OC)cc3[C@@H]2C[C@@H]1C[C@H]1NCCc2cc(OC)c(OC)cc21	.	-4%
Cc1ccc(S(=O)(=O)NCCSc2nnnn2-c2cc(C)ccc2C)cc1	-22%	5%
Cc1cccc2sc(NC(=O)Cn3cccc3)nc12	-2%	4%
Cc1c(C(=O)NCc2n[nH]c(=S)n2-c2ccc(F)cc2)cccc1[N+](=O)[O-]	1%	-4%
Cc1cc(C)cc(NC(=O)CN2C(=O)NC(C)(c3ccccc3)C2=O)c1 (configuration not stated)	-7%	-11%
COc1ccccc1OCCNC(=O)c1cc(=O)[nH]c2ccccc12	17%	3%
CC(C)c1ccc(NC2CCCN(C(=O)c3ccncc3)C2)cc1 (configuration not stated)	-5%	-23%
CC1CN(c2nc3ccccc3nc2C(C#N)C(=O)OC2CCCCC2)CC(C)O1 (configuration not stated)	6%	7%
CCCc1ccc(S(=O)(=O)N2CCN(C(C)C(=O)NCc3ccc(OC)cc3)CC2)cc1 (configuration not stated)	-2%	.
Cc1cnc(C(=O)Nc2ccc(OC(F)(F)F)cc2)cn1	-13%	-11%
CO[C@H]1/C=C/O[C@@]2(C)Oc3c(C)c(O)c4c(O)c(c(C=NN5CCN(C)CC5)c(O)c4c3C2=O)NC(=O)/C(C)=C\C=C\[C@H](C)[C@H](O)[C@@H](C)[C@@H](O)[C@@H](C)[C@H](OC(C)=O)[C@@H]1C	-7%	-5%
O=C(NC1CCCCC1)N(CCN1CCCC1)Cc1cc2cc3c(cc2[nH]c1=O)OCCO3	-15%	-11%
CCOC(=O)c1cccc(NC(=O)c2ccc(-n3cnnn3)cc2)c1	-17%	.
Clc1ccc(N2CCN(Cc3c[nH]c4ncccc34)CC2)cc1	?	-15%&-6%&-8%&-5%
CC(C)C[C@H](NC(=O)c1nc[nH]c1C(=O)N(C)Cc1ccccc1)C(=O)OC(C)(C)C	-1%	-2%
CCN(CC)c1ccc(/C=N/N2CC(=O)NC2=S)cc1	-9%	.
COc1ccc(CCN2C(=O)C3CC(C)=C(C)CC3C2=O)cc1OC (configuration not stated)	7%	-1%

Continued, starting with the last 7 of the part before.
SMILES	FEN1 inhibitor	N370S GC mod
CO[C@H]1/C=C/O[C@@]2(C)Oc3c(C)c(O)c4c(O)c(c(C=NN5CCN(C)CC5)c(O)c4c3C2=O)NC(=O)/C(C)=C\C=C\[C@H](C)[C@H](O)[C@@H](C)[C@@H](O)[C@@H](C)[C@H](OC(C)=O)[C@@H]1C	-7%	-5%
O=C(NC1CCCCC1)N(CCN1CCCC1)Cc1cc2cc3c(cc2[nH]c1=O)OCCO3	-15%	-11%
CCOC(=O)c1cccc(NC(=O)c2ccc(-n3cnnn3)cc2)c1	-17%	.
Clc1ccc(N2CCN(Cc3c[nH]c4ncccc34)CC2)cc1	?	-15%&-6%&-8%&-5%
CC(C)C[C@H](NC(=O)c1nc[nH]c1C(=O)N(C)Cc1ccccc1)C(=O)OC(C)(C)C	-1%	-2%
CCN(CC)c1ccc(/C=N/N2CC(=O)NC2=S)cc1	-9%	.
COc1ccc(CCN2C(=O)C3CC(C)=C(C)CC3C2=O)cc1OC (configuration not stated)	7%	-1%
CCOc1ccc(N2C(=O)CC(N3CCC(O)(c4ccc(Br)cc4)CC3)C2=O)cc1 (configuration not stated)	-3%	-8%
C(=C\c1nc(N2CCCCCC2)c2ccccc2n1)/c1ccccc1	-14%	2%
Cc1ccc(S(=O)(=O)Nc2cccc3c2O[C@H](CN(C)Cc2ccc(-c4ccccc4)cc2)[C@@H](C)CN([C@H](C)CO)C3=O)cc1	1%	.
O=C(O)CCC(=O)N1CCN(c2ccccn2)CC1	1%	2%
CC(C(=O)NC1CCCCC1)N(Cc1ccccc1)C(=O)c1snc(C(N)=O)c1N (configuration not stated)	-3%	1%
CCNC(=O)n1nccc1C(C)Oc1ccc(Cl)cc1 (configuration not stated)	-15%	25%
CCn1c(SCc2nc3cc(OC)c(OC)cc3c(=O)[nH]2)nnc1-c1ccncc1	-7%	8%
CCCOC(=O)C(C)Sc1n[nH]c(=O)[nH]c1=O (configuration not stated)	-8%	2%
O=C(NP(=O)(N1CCOCC1)N1CCOCC1)C1=C(N2CCOCC2)/C(=C\c2ccccc2)CC1	-2%	-11%
CC(C)n1c2ccccc2c2nnc(SCC(=O)OCN3C(=O)c4ccccc4C3=O)nc21	2%	-2%
NC(=O)C1CCN(C(=O)c2ccc(CS(=O)(=O)c3c(Cl)cccc3Cl)o2)CC1	-12%	-17%
COCCNC(=O)COc1ccc(OCCNC[C@@H](O)COc2ccccc2)cc1	.	-23%
CC(=O)NC1=NN(C(C)=O)C(c2sccc2C)S1 (configuration not stated)	8%	2%
O=C(CN1CCN(S(=O)(=O)c2ccccc2)CC1)Nc1ccc2c(c1)OCO2	-5%	4%
COc1ccccc1N1CCN(C(=O)CN2C(=O)COc3ccc(S(=O)(=O)N4CCCCCC4)cc32)CC1	-7%	.
O=C(CSc1ccc2nnc(-c3ccccn3)n2n1)N1CCOCC1	8%	7%
COCCNC(=O)COc1ccccc1C	6%	4%
COc1ccc(Cc2nnc(NC(=O)c3cc(OC)c(OC)c(OC)c3)s2)cc1OC	-16%	-2%
CCc1nn(CC(=O)N2CCN(c3cccc(C)c3C)CC2)c(=O)c2cc3occc3n12	9%	.
O=C(Nc1nonc1-c1ccc(F)cc1)c1ccco1	19%	-5%
O=C(Nc1cc(S(=O)(=O)N2CCOCC2)ccc1N1CCCC1)C1CC1	-12%	11%
CSc1ccc(NC(=O)Nc2ccc(C(=O)NCC(=O)O)cc2)cc1	-27%	8%

Not all compounds are listed; most or all hits stand in other tables.
